# CapD inh = inhibitors of Bacillus anthracis CapD enzyme; purified CapD enzyme, fluorescence intensity read-out; hits give low values; some hits fall short of the stated cut; z-score (concentration not given with the values); 0.23% of 140,000 active;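 active = z-score under -4 in either of two replicates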;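 also: stock transfer was 100 nL into about 40 µL; score is relative to mean and spread of the plate; one replicate is shown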
# AID504770 = E. coli YBA685 growth inhibition, screen for V. cholerae RctB inhibitors; AID 504770; E. coli YBA685 rctB-dependent plasmid, OD600 growth, 3 h; hits give low values; 0.27% of 130,000 active; z-score (test concentration not listed);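 active = z-score under -2 on both plates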;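 also: wells of about 30 µL received 100 nL stock; score is relative to mean and SD of the test wells; the first replicate is given; strong numbers were not always called active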
# Starred values were filed as active, the others as inactive; / = not tested or not shown.
# The line under a structure holds: CapD inh, AID504770
CC1(C)CC(=O)C(=Cc2ccc3c(c2)OCCO3)C(=O)C1
 : -0.15, -0.35
CCOc1cc(-c2c(C#N)c(N)n3c(nc4ccccc43)c2C#N)ccc1OC
 : 2.7, /
CCc1nc2sc3c(c2c2nncn12)CCC3
 : 0.12, 0.25
CCCCCCCCCCOc1ccc(C(=O)Oc2ccc(C#N)cc2)cc1
 : -0.71, /
CN(C)c1ccc(/C=N/NC(=O)CN2C(=O)CN=C(c3ccccc3)c3cc(Br)ccc32)cc1
 : -0.15, /
COC(=O)c1ccc(COC(=O)c2ccccc2OC)cc1
 : -0.12, -0.9
CCN(CC)c1ccc(/C=N/NC(=O)Cc2csc(-c3ccccc3)n2)cc1
 : 35, /
O=C(CN1C(=O)C2C3C=CC(C3)C2C1=O)Nc1nnc(C(F)(F)F)s1 (stereo not drawn)
 : 0.12, -0.85
CCn1cc(C(=O)O)c(=O)c2cc(F)c(F)cc21
 : 0.27, -1.4
Cc1nc(C)c(-c2csc(Nc3ccc(O)c(C(=O)O)c3)n2)s1
 : 11, 0.8
CC(=O)N1N=C(c2c(C)coc2C)CC1c1ccc(Cl)cc1Cl (stereo not drawn)
 : /, -0.3
N#Cc1c(OC(=O)c2ccco2)ccc(OC(=O)c2ccco2)c1C#N
 : 1.6, -0.5
COC(=O)C1=C(N)N(c2ccc(S(N)(=O)=O)cc2)C2=C(C(=O)CC(C)(C)C2)C1c1ccc(Cl)cc1 (stereo not drawn)
 : -0.07, /
CC(OC(=O)C1CC2CCCC(C1)C2=O)C(=O)N1c2ccccc2CC1C (stereo not drawn)
 : /, -0.6
CC(C)(C)C(=O)N(Cc1ccccc1)Cc1ccccc1
 : -0.025, -0.7

# More results follow.
# The line under a structure holds: CapD inh, AID504770
CC(C)(C)N(Cc1ccccc1)C(=O)CSc1nc2ccccc2o1
 : /, -0.35
COc1c(C(=O)NCc2ccc(Cl)cc2)csc1Cl
 : -0.075, -0.4
Cn1c(-c2ccccc2)c(C(=O)CN2CCN(C(=O)c3ccco3)CC2)c2ccccc21
 : /, 0.05
Clc1ccc(C2=NC(c3ccc(Cl)cc3)N=C(c3ccc(Cl)cc3)S2)cc1
 : 27, /
C=CCSc1nnc(-c2oc3nc(-c4ccccc4)cc(-c4ccccc4)c3c2N)n1C
 : 4.4, -0.3
COc1ccc(C2C3CCC=C3C(C#N)=C(N)C2(C#N)C#N)c(OC)c1 (stereo not drawn)
 : 0.14, /
Cc1ccc(-n2c(SCC(N)=O)nc3sc4c(c3c2=O)CCCCC4)cc1
 : 0.095, /
CCOC(=O)C1C(c2ccc(Br)cc2)C(C(=O)OCC)C(O)(C(F)(F)F)NC1(O)C(F)(F)F (stereo not drawn)
 : -1.3, 2.8
CN1/C(=C/C(=S)C(C)(C)C)Sc2ccccc21
 : -2.2, 1
Cc1ccc2c(N3CC4CCC(CC4)C3)cc(C(F)(F)F)nc2c1
 : 0.73, -0.3
COc1ccc(Oc2nc3ccccc3cc2-c2cccc(C(F)(F)F)c2)cc1
 : -0.14, /
CSc1nc2ccc(Br)cc2[nH]1
 : 0.4, -0.15
CC1=C(C(=O)Nc2ccccc2)C(c2ccccc2)n2c(s/c(=C/c3ccc4c(c3)OCO4)c2=O)=N1 (stereo not drawn)
 : -0.15, /
O=C(CSc1nc2c(sc(=S)n2Cc2ccco2)c(=O)n1-c1ccccc1)NCc1ccco1
 : -0.48, /
O=C(c1ccccc1)N1N=C(C(F)(F)F)CC1(O)c1cccc([N+](=O)[O-])c1 (stereo not drawn)
 : 0.43, /

# Further results follow:
# The line under a structure holds: CapD inh, AID504770
O=C(O)c1cccc(-c2ccc3c(c2)OCO3)c1
 : /, 0.35
NS(=O)(=O)c1ccc(CCNc2ncc(C(F)(F)F)cc2Cl)cc1
 : -0.01, /
Cc1cnc(NC(=O)CC(C)c2ccccc2)s1 (stereo not drawn)
 : /, 0
CCCc1nc2ccccc2n1CC
 : -0.075, -0.7
COc1ccc(Oc2nc(-c3ccccc3)ns2)cc1
 : 1, -1
O=C(CN1C(C(=O)c2ccccc2)=C(N2CCOCC2)c2ccccc2S1(=O)=O)c1ccccc1
 : -0.38, 0.9
CN(C)c1ccc(/C=C2\CCC/C(=C\c3ccccc3)C2=O)cc1
 : -0.52, 0.75
O=C(c1ccc2c(c1)sc1nc(-c3ccccc3)cn12)N1CCCC1
 : 0.72, 0.65
O=C(O)CC(Cc1ccccc1)c1ccco1 (stereo not drawn)
 : 0.1, -0.65
CN(C)/N=C(\N)c1ccc(Cl)cc1
 : 0.55, -1.5
COc1ccc(Cn2nnnc2C(c2ccccc2F)N(Cc2ccco2)CC2CCCO2)cc1 (stereo not drawn)
 : /, 0.55
COc1ccc(N/C=C/c2onc(-c3ccccc3Cl)c2C#N)c(OC)c1
 : -1.3, /
CCN(C(=O)C1CCN(S(=O)(=O)c2cccc3nsnc23)CC1)c1ccc(C)c(C)c1
 : -0.17, 0.15
CCOC(=O)N1CCN(c2c(F)cc3[nH]c(=S)[nH]c3c2Br)CC1
 : -0.74, 0.25
COC(=O)c1c(-c2ccc(C(C)(C)C)cc2)csc1NC(=O)C1C2CCC(O2)C1C(=O)O (stereo not drawn)
 : 3.7, -0.55

# Going on with the list.
# The line under a structure holds: CapD inh, AID504770
O=C(CCCn1c(=O)oc2ccccc21)N1CCCc2ccccc21
 : /, -0.1
CC(C)(C)OC(=O)C1=C(N)OC2=C(C(=O)CCC2)C12C(=O)Nc1ccc(Br)cc12 (stereo not drawn)
 : -0.34, /
N#C/C(=C(/O)c1cc[n+](Cc2ccccc2)cc1)c1nc2ccccc2[nH]1
 : -0.99, -0.65
CC(C)(C)P(=O)(N1CCOCC1)N1CCOCC1
 : /, -0.7
CC(C(=O)NCc1ccccc1)n1c2ccccc2c2cn[nH]c(=O)c21 (stereo not drawn)
 : 12, 0.8
CCc1nccn1C(=O)CCCC(=O)O
 : 1.2, 3
CC1Oc2ccccc2N(CC(=O)NC2CC2)C1=O (stereo not drawn)
 : /, -0.65
CCCCn1c(CCCNC(=O)c2cccs2)nc2ccccc21
 : 0.53, -0.3
CCCOC(=O)c1cc(-c2ccc(/C=C3\C(=O)NC(=O)C(C#N)=C3C)o2)ccc1Cl
 : -0.025, 0.55
COc1ccc(-c2nnc(SCC(=O)c3ccc(Cl)cc3Cl)o2)cc1
 : -0.18, /
CCOC(=O)c1cc(C)n(-c2cccc([N+](=O)[O-])c2)c1-c1ccccc1
 : 0.78, /
Cn1c(SCc2ccccc2)nnc1C1CCCN(C(=O)Cc2ccc3c(c2)OCO3)C1 (stereo not drawn)
 : /, -0.75
Cc1ccc(C(=O)c2ccccc2C(=O)OCC(=O)c2ccc(F)cc2)cc1
 : -0.7, 0.25
Cc1cc(Cl)ccc1OCCCC(=O)Nc1ccc(S(=O)(=O)Nc2ncccn2)cc1
 : 0.29, -0.65
CCCn1c(NC(=O)Nc2ccccc2)c2ccccc2nc1=O
 : /, 0.55

# Next part:
# The line under a structure holds: CapD inh, AID504770
Cc1ccc(NC(=O)C(C#N)=C(SCc2cccc(Cl)c2)SCc2cccc(Cl)c2)cc1
 : -0.19, /
O=C(c1ccc(Cl)cc1)N1CCN(C(=O)c2ccc(Cl)cc2)CC1
 : 0.35, /
CCc1ccc(NS(=O)(=O)c2ccc3[nH]cc(C(=O)NCCOC)c(=O)c3c2)cc1
 : 0.06, 1.4
COC(=O)Cn1c(=O)sc2ccccc21
 : -0.13, 0.5
O=C(CSc1nnc(-c2cccnc2)n1-c1ccccc1)NCc1ccccc1
 : -0.35, 0.3
O=C1N/C(=C/c2ccsc2)C(=O)N1Cc1ccccc1F
 : 0.56, 0.7
Cc1nn(S(=O)(=O)c2ccccc2)c(C)c1Cc1c(F)cccc1Cl
 : 0.095, /
O=C1CN(C(=O)CSc2nnc(Nc3ccccc3F)s2)c2ccccc2N1
 : /, 0.2
O=c1[nH]cc(S(=O)(=O)N2CCc3ccccc32)c(=O)[nH]1
 : /, 1.1
O=c1[nH]ncc(NCCN2CCOCC2)c1Cl
 : /, 1.4
CCOC(=O)c1c(NC(=O)COC(=O)Cn2cnc3ccccc32)sc2c1CCC(C)C2 (stereo not drawn)
 : /, -0.1
Cc1ccc2c(c1)-c1cc(C)nn1C(c1cccnc1)N2 (stereo not drawn)
 : 1.9, -0.8
CCOC(=O)C1=C(C)NC(=O)NC1c1cn(-c2ccccc2)nc1-c1ccc(Cl)cc1 (stereo not drawn)
 : -0.16, /
O=C(NC1CCCC1)c1ccc(Br)s1
 : -1.1, -0.5
O=C(CSCCN1C(=O)c2ccccc2C1=O)NCc1ccc(F)cc1
 : /, -0.15

# Next part; the last 7 above are carried over.
# The line under a structure holds: CapD inh, AID504770
O=c1[nH]cc(S(=O)(=O)N2CCc3ccccc32)c(=O)[nH]1
 : /, 1.1
O=c1[nH]ncc(NCCN2CCOCC2)c1Cl
 : /, 1.4
CCOC(=O)c1c(NC(=O)COC(=O)Cn2cnc3ccccc32)sc2c1CCC(C)C2 (stereo not drawn)
 : /, -0.1
Cc1ccc2c(c1)-c1cc(C)nn1C(c1cccnc1)N2 (stereo not drawn)
 : 1.9, -0.8
CCOC(=O)C1=C(C)NC(=O)NC1c1cn(-c2ccccc2)nc1-c1ccc(Cl)cc1 (stereo not drawn)
 : -0.16, /
O=C(NC1CCCC1)c1ccc(Br)s1
 : -1.1, -0.5
O=C(CSCCN1C(=O)c2ccccc2C1=O)NCc1ccc(F)cc1
 : /, -0.15
CCOC(=O)C1CCN(c2ccc(C(C)=O)cc2N)CC1
 : 1, /
Nc1nc(CCC(=O)OCc2c(F)cccc2Cl)nc(Nc2ccccc2)n1
 : /, 1.4
COc1ccccc1C1C=CCC1 (stereo not drawn)
 : 8.7, -0.05
O=C1CCC/C1=C\c1ccccc1
 : /, -0.3
CCN(CC)S(=O)(=O)c1ccc2[nH]c(=O)cc(C(=O)N3CCCSc4ccccc43)c2c1
 : /, -0.25
COc1cccc(CN2CCC(COC(=O)N3CCCC3C(=O)OCc3ccccc3)CC2)c1 (stereo not drawn)
 : -0.49, /
O=C(NC1Cc2ccccc2C1)c1ccc(Oc2cc(Cl)cc(Cl)c2)o1
 : 0.14, -0.25
O=C(NC1CCN(Cc2ccccc2)CC1)C1CCCCC1
 : 0.3, /
Cc1ccc(C(=O)N(C)C2CCN(C)CC2)cc1C
 : /, -1.2
COc1cccc2c1OC(c1cccc(F)c1)N1N=C(c3ccco3)CC21 (stereo not drawn)
 : -0.66, /
COc1cccc(N/C=C/c2onc(-c3c(F)cccc3Cl)c2C#N)c1
 : 2, /
Cc1oc2ncn(CC(C)C)c(=O)c2c1C(=O)N1CCCC1
 : -0.065, 0.65
CCCNC(=O)Cn1cnc2sc(C(=O)N3CCC4(CC3)OCCO4)c(C)c2c1=O
 : 0.72, 1.2
FC(F)(F)c1ccc(NC2=NCCC2)cc1
 : /, -0.25
COC(=O)c1ccccc1NC(=O)CCCN1C(=O)CSc2ncccc21
 : 0.31, 1.4

# A different layout for three compounds above:
Structure,CapD inh,AID504770
O=C(NC1Cc2ccccc2C1)c1ccc(Oc2cc(Cl)cc(Cl)c2)o1,0.14,-0.25
COc1cccc(N/C=C/c2onc(-c3c(F)cccc3Cl)c2C#N)c1,2,/
FC(F)(F)c1ccc(NC2=NCCC2)cc1,/,-0.25

# Later entries.
# The line under a structure holds: CapD inh, AID504770
COc1ccc(C2N(c3cccc(C)c3)CCN2c2cccc(C)c2)cc1[N+](=O)[O-]
 : 0.035, /
CC(=O)N(/C=C1\Sc2ccccc2C1=O)c1ccccc1
 : /, -0.05
O=C(Nn1c(-c2ccc(Br)cc2)nc2ccccc2c1=O)c1ccc([N+](=O)[O-])cc1
 : -0.06, /
CCCn1c(N)c(C(=O)COC(=O)c2cccc(NC(=O)OC(C)(C)C)c2)c(=O)[nH]c1=O
 : /, 0.8
CN1C(=O)/C(=C\c2ccccc2)Sc2ccc(C(=O)N3CCN(c4ccccn4)CC3)cc21
 : -0.005, 0.55
CNc1nc(OCC(F)(F)F)nc(N2CCN(Cc3ccccc3)CC2)n1
 : -0.73, /
c1ccc(COc2ccc(NCCc3ccncc3)cc2)cc1
 : -0.16, -0.9
CCN(CC(=O)NCc1cccs1)C(=O)c1cn(-c2ccccc2)nc1-c1cccs1
 : /, 1.9
CSc1cc(-c2ccccc2)[nH]c(=O)c1C#N
 : 5, -0.65
Cc1cc2nc3c4cccc5cccc(c(=O)n3c2cc1C)c54
 : 0.09, /
CCOC(=O)Cn1c(CN2CCN(c3cccc(Cl)c3)CC2)nc2c1c(=O)[nH]c(=O)n2C
 : -1.1, -0.65
COC(CN(C)C(=O)c1cc2c(C)nc3ccccc3c2o1)OC
 : -2.4, -0.05
CC(C)Sc1nnc2sc3ccccc3n12
 : -0.06, 0.4
COCc1cc(C)nc2sc3c(nnn4c5ccccc5nc34)c12
 : -0.21, 1.5
CC(OC(=O)/C=C/c1cccs1)C(=O)Nc1cccc(C(F)(F)F)c1 (stereo not drawn)
 : -1, 0.4

# (next part)
# The line under a structure holds: CapD inh, AID504770
COC(=O)C1C(=O)NC(SCC(=O)Nc2ccccc2C)=C(C#N)C1c1ccccc1C (stereo not drawn)
 : 0.15, /
CN(C)S(=O)(=O)c1cccc(C(=O)NCC2COc3ccccc3O2)c1 (stereo not drawn)
 : /, 0.1
O=C(Nc1ccccc1)Nc1nncs1
 : /, 1.3
CC(C)(C)c1ccc(/C(N)=N/O)cc1
 : 0.12, -0.65
Nc1csc(C(F)(F)F)c1-c1ccccc1
 : 1.2, -0.7
N#Cc1c(SCc2ccc(Cl)cc2)sc(C(=O)c2ccccc2)c1N
 : 0.46, /
COc1ccccc1CNc1ccccc1C(=O)N1CCOCC1
 : 0.42, 1
O[C@H](CSc1ncccn1)C(F)(F)F
 : 0.34, -2.3
COc1ccc(N=c2oc3cc(O)ccc3cc2-c2nc(-c3ccc(Br)cc3)cs2)cc1
 : -0.21, /
O=C(/C=C/c1ccc(S(=O)(=O)N2CCCCCC2)cc1)N1CCN(C2CCS(=O)(=O)C2)CC1 (stereo not drawn)
 : /, 0.25
CCC(=O)O/N=C1\C(=O)N(Cc2ccc(Cl)cc2Cl)c2ccccc21
 : -0.99, /
Cc1ncc(CSc2nccc(=O)[nH]2)c(CO)c1O
 : 29, -0.7
COc1ccc(C2=NOC(C(=O)N(C)Cc3ccccc3)C2)cc1 (stereo not drawn)
 : -0.62, -0.1

# Compound activity (PubChem)
